Anesthetic bind: qHTS Assay for Identification of Novel General Anesthetics | Ferritin light chain (Equus caballus), P02791 | AID 485281, 2010 | Potency, µM (highest dose often 77.5 µM), for the others: at the highest dose activity change, negative = displacement, most hits filed as inhibitors | actives 0.074% (n = 350,000) | apoferritin/1-aminoanthracene competitive binding, fluorescence; also: potency is read from the fitted curve at half-maximal effect; % is scaled to controls: 0 for no effect and ±100 for the full control effect; nearly all actives have a fitted effect of over 20% in size
Target sequence (P02791 2-175 limits assumed): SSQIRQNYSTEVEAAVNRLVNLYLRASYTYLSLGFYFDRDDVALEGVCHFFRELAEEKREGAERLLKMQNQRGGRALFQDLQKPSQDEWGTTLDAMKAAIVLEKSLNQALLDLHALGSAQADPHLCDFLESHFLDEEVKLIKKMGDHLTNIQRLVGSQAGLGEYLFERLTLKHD
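Horse-spleen apoferritin (10 uM) in 50% saturated 1-aminoanthracene in PBS was incubated 10 min at room temperature with compound. Fluorescence (ex 380, em 535 nm) was normalized to free and bound 1-AMA, with concentration-response fitted by a four-parameter Hill equation.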
RXFP1 ag: qHTS Assay for Agonists of the Relaxin Receptor RXFP1; actives 0.3% (n = 370,000); Relaxin receptor 1 (Homo sapiens), Q9HBX9; Potency, µM (top dose mostly 57.5 µM), for inactives: top-dose activation, hits mostly activators; HEK293T-RXFP1 cAMP TR-FRET, 30 min; response scale: percent of porcine relaxin response, buffer zero; also: potency is read from the fitted curve at half-maximal effect; % is scaled to controls: 0 for no effect and ±100 for the full control effect; nearly all actives have a fitted effect of over 60% in size; many of its hits are not listed in these tables
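HEK293 cells stably expressing RXFP1, treated 30 min at 37C with compounds plus PDE4 inhibitor Ro 20174; cAMP measured by HTRF TR-FRET. Normalized to buffer and 29 nM porcine relaxin; EC50 by Hill fit.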
D2 PAM: HTS Assay for Positive Allosteric Modulators of the Human D2 Dopamine Receptor: Primary Screen for Potentiators | HEK293 T-REx D2, calcium flux, EC20 dopamine potentiation | actives 0.34% (n = 340,000) | D(2) dopamine receptor (Homo sapiens), P14416 | AID 485347, 2010 | potentiation, % at 10 µM;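 active = potentiation over 3 SD above the plate norm, cut at about 30% in these data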; also: 0% is about no effect
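Tetracycline-induced HEK293 T-REx cells force-coupled to calcium signalling expressed D2; compounds were pin-added after a 10 s baseline, read kinetically 180 s, then an EC20 dopamine challenge followed with a further 180 s calcium read.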
RXFP1 antagonist: qHTS Assay for Antagonists of the Relaxin Receptor RXFP1; Relaxin receptor 1 (Homo sapiens), Q9HBX9; HEK293-RXFP1, relaxin-stimulated cAMP HTRF, 30 min; hits give low values; activity change, negative = inhibition, % at 57.5 µM; actives 0.59% (n = 350,000); AID 1259400, 2018;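 active = activity change of -60% or lower, but not beyond a set lower limit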; also: % is scaled to controls: 0 for no effect and ±100 for the full control effect
The depositor's hits bear a star; / = no result given; & = joins results of further samples; [ ] = remark or other dose. Unless noted, calls follow the shape of the dose curve; as a rule, active = well fitted curve in the direction sought with a large enough effect; inconclusive = small, poorly fitted or top-dose-only effect, or another doubt; inactive = no such curve, though single readings can be large; an effect the other way counts as inactive or inconclusive. An excerpt (hit frequency here may not be typical).

smiles,Anesthetic bind,RXFP1 ag,D2 PAM,RXFP1 antagonist
Cc1ccnc(NS(=O)(=O)c2ccc(N)cc2)n1,-5.3%,2.7%,/,14.4
CC(=O)OCC(=O)[C@@]12OC(C)(C)O[C@@H]1C[C@H]1[C@@H]3C[C@H](F)C4=CC(=O)C=C[C@]4(C)[C@@]3(F)[C@@H](O)C[C@@]12C,-1.6%,0.3%,16.6,-19.4
COc1ccc(OC)c(C(O)CNC(=O)CN)c1 (stereo not drawn),0.1%,0.0%,11.0,4.7
CC1OC1P(=O)(O)O (stereo not drawn),-14.5%,/,/,/
CC[C@@H]1OC(=O)[C@H](C)[C@H](O[C@@H]2C[C@](C)(OC)[C@H](O)[C@H](C)O2)[C@H](C)[C@H](O[C@@H]2O[C@@H](C)C[C@@H](N(C)C)[C@@H]2O)[C@](C)(O)C[C@H](C)C(=O)[C@H](C)[C@H](O)[C@]1(C)O,-5.2%[29.3 µM],/,/,/
COCCc1ccc(OCC(O)CNC(C)C)cc1 (stereo not drawn),2.2%,-0.8%&-1.4%,-4.3&9.2,0.6
CC(=O)C[C@H](c1ccc([N+](=O)[O-])cc1)c1c(O)c2ccccc2oc1=O,1.9%[29.3 µM],/,/,/
CCc1cccc2c3c([nH]c12)C(CC)(CC(=O)O)OCC3 (stereo not drawn),-2.2%,0.7%,6.4,-6.0
N[C@@H](Cc1cc(I)c(Oc2ccc(O)c(I)c2)c(I)c1)C(=O)O,-9.1%&3.7%,1.9%&-0.2%&1.6%,4.5&-2.0,/
CCN(CC)Cc1cc(Nc2ccnc3cc(Cl)ccc23)ccc1O,-15.3%,0.5%&0.7%,-9.2&-6.7,/
C[N+](C)(C)CCO,0.0%,/,/,/
CCc1cccc2c3c([nH]c12)[C@@](CC)(CC(=O)O)OCC3,-1.9%[29.3 µM],/,/,/

The listing continues:
smiles,Anesthetic bind,RXFP1 ag,D2 PAM,RXFP1 antagonist
CC1(C)S[C@@H]2[C@H](NC(=O)[C@H](C(=O)O)c3ccsc3)C(=O)N2[C@H]1C(=O)O,-4.4%,3.5%,3.0,/
CCC(CO)NCCNC(CC)CO (stereo not drawn),2.8%&-0.7%,0.2%,3.4,/
CC[C@H](CO)NCCN[C@H](CC)CO,7.3%,1.3%,2.3,/
CC1(C)S[C@@H]2[C@H](NC(=O)[C@@H](N)c3ccccc3)C(=O)N2[C@H]1C(=O)O[C@H]1OC(=O)c2ccccc21,-6.9%[29.3 µM],/,/,/
CC(C)NC[C@H](O)c1cc(O)cc(O)c1,-1.7%[29.3 µM],/,/,/
CN1CCC[C@@H]1c1cccnc1,1.7%,/,/,11.5
OC[C@@H](O)[C@@H](O[C@@H]1O[C@H](CO)[C@H](O)[C@H](O)[C@H]1O)[C@H](O)[C@@H](O)CO,/,/,/,5.5
O=C1O[C@H]([C@@H](O)CO)C(O)=C1O,/,2.4%,11.3,19.2
CCCCc1nc(Cl)c(CO)n1Cc1ccc(-c2ccccc2-c2nn[nH]n2)cc1,-14.4%&0.9%,0.0%,11.5,-15.0
NCCCC[C@H](N[C@@H](CCc1ccccc1)C(=O)O)C(=O)N1CCC[C@H]1C(=O)O,2.4%,1.0%&2.4%,-3.3&11.9,1.1&7.3
CC(=O)OCC(=O)[C@@]1(O)CC[C@H]2[C@@H]3CCC4=CC(=O)CC[C@]4(C)[C@H]3C(=O)C[C@@]21C,-11.0%,-4.4%,5.8,9.9
CC(=O)CC(c1ccccc1)C1C(=O)Oc2ccccc2C1=O (stereo not drawn),2.2%,/,/,/
NC(CO)(CO)CO,1.7%&-17.2%,/,/,-2.6

Twelve entries from above, with values under each structure.
Results follow in this order: Anesthetic bind | RXFP1 ag | D2 PAM | RXFP1 antagonist
C[N+](C)(C)CCO
  0.0% | / | / | /
CCc1cccc2c3c([nH]c12)[C@@](CC)(CC(=O)O)OCC3
  -1.9%[29.3 µM] | / | / | /
CC1(C)S[C@@H]2[C@H](NC(=O)[C@H](C(=O)O)c3ccsc3)C(=O)N2[C@H]1C(=O)O
  -4.4% | 3.5% | 3.0 | /
CCC(CO)NCCNC(CC)CO (stereo not drawn)
  2.8%&-0.7% | 0.2% | 3.4 | /
CC[C@H](CO)NCCN[C@H](CC)CO
  7.3% | 1.3% | 2.3 | /
CC1(C)S[C@@H]2[C@H](NC(=O)[C@@H](N)c3ccccc3)C(=O)N2[C@H]1C(=O)O[C@H]1OC(=O)c2ccccc21
  -6.9%[29.3 µM] | / | / | /
CC(C)NC[C@H](O)c1cc(O)cc(O)c1
  -1.7%[29.3 µM] | / | / | /
CN1CCC[C@@H]1c1cccnc1
  1.7% | / | / | 11.5
OC[C@@H](O)[C@@H](O[C@@H]1O[C@H](CO)[C@H](O)[C@H](O)[C@H]1O)[C@H](O)[C@@H](O)CO
  / | / | / | 5.5
O=C1O[C@H]([C@@H](O)CO)C(O)=C1O
  / | 2.4% | 11.3 | 19.2
CCCCc1nc(Cl)c(CO)n1Cc1ccc(-c2ccccc2-c2nn[nH]n2)cc1
  -14.4%&0.9% | 0.0% | 11.5 | -15.0
NCCCC[C@H](N[C@@H](CCc1ccccc1)C(=O)O)C(=O)N1CCC[C@H]1C(=O)O
  2.4% | 1.0%&2.4% | -3.3&11.9 | 1.1&7.3

Reprinted from the listing for reference:
smiles,Anesthetic bind,RXFP1 ag,D2 PAM,RXFP1 antagonist
CC(=O)CC(c1ccccc1)C1C(=O)Oc2ccccc2C1=O (stereo not drawn),2.2%,/,/,/
NC(CO)(CO)CO,1.7%&-17.2%,/,/,-2.6
